# GLA inh pH 4.5: alpha-galactosidase A (human) inhibition, pH 4.5. P06280. purified enzyme, 4-MU-alpha-Gal fluorescence, pH 4.5. activity change, negative = inhibition, % at 105 µM. 230,000 tested, under 10 active; inconclusive = small, poorly fitted or top-dose-only inhibition, or a rising curve; inactive = flat fitted curve, though single readings scatter; no compound was filed as active;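 further: 0% = full activity with enzyme and -100% = basal without enzyme; dose as in the result columns while the protocol names 77 µM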
# Rango release inh: inhibition of RanGTP-driven Rango-importin beta dissociation | O95149+P62826 | Biochemical FRET Rango-importin beta, RanGTP-induced dissociation | Potency, µM (doses to about 46.1 µM), for the others: at the highest dose activity change, negative = inhibition | 0.071% of 340,000 active | AID 540253; active means falling FRET ratio curve, often poorly fitted, with flat reads before Ran was added; inconclusive means other falling curves, or compound fluorescence or quenching; inactive means flat or rising ratio curve;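 further: potency means the concentration at half of the fitted maximal effect; % of control where 0% means no effect; nearly all actives have a fitted effect of over 45% in size; -100% = wells without RanGTP and RCC1; the record marks most hits as doubtful in a second field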
#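 Rango (0.1 uM)–importin beta (0.25 uM) complex; RanGTP-RCC1 trigger; 45 min RT; CFP/YFP FRET read.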
# Rango complex inh: Rango-importin beta binding inhibition; Rango CFP/YFP FRET sensor + importin beta, 45 min; Potency, µM (titrated, usually from 92.2 µM), without a hit: top-dose inhibition of complex formation; 0.031% of 340,000 active; AID 540263; active = rising FRET ratio curve, often small or poorly fitted; inconclusive = mostly compound fluorescence or quenching in the first reads; inactive = flat curves in all reads;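 further: potency means the concentration at half of the fitted maximal effect; 0% = DMSO wells and 100% = buffer wells lacking importin beta; nearly all actives have a fitted effect of over 15% in size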
# Target sequence (Q14974 whole entry, looked up): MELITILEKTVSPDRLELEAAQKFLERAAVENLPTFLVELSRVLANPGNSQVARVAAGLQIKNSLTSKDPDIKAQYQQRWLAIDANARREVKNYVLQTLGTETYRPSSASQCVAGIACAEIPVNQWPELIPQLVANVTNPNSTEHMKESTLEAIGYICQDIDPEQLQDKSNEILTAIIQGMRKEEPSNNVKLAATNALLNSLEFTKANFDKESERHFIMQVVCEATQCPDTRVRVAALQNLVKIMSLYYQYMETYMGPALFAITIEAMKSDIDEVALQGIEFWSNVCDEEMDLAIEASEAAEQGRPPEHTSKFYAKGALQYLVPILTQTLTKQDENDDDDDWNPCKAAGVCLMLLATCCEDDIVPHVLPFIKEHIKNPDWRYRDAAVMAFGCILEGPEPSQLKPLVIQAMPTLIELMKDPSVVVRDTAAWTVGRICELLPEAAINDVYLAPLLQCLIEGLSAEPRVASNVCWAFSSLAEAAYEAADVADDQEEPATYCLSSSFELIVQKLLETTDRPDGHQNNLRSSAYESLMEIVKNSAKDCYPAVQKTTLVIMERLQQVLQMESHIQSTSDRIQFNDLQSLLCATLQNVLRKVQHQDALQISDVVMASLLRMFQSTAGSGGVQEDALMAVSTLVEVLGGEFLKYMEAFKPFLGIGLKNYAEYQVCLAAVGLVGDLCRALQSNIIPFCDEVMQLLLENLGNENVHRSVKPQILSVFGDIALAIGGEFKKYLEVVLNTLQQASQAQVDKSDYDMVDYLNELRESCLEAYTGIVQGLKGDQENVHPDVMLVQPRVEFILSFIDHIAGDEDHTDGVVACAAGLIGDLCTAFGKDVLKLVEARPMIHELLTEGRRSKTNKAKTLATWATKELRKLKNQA
#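 Inhibition scored from the CFP 486 nm/YFP 530 nm FRET ratio 45 min after adding 0.125 microM importin beta to 50 nM Rango biosensor preincubated 5 min with compound (room temperature, PBS with DTT, Tween-20, BSA). No-importin wells as positive control.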
# miR-21 reporter: raises the signal of a miR-21 reporter; HeLa miR-21 FLuc reporter, luciferase, 48 h; Potency, µM (series often up to 38.3 µM), inactives show at the highest dose reporter change, positive = more light; 340,000 tested, under 10 active; AID 2288; active = well fitted rising curve with a large enough effect; inconclusive = small, poorly fitted or top-dose-only effect; inactive = no such curve, though single readings can be large or run the other way;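 further: % of control where 0% means no effect; miR-21 action dims this reporter so a rising signal means less miR-21 action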
#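 HeLa cells stably expressing CMV-driven firefly luciferase with a downstream miR-21 binding sequence, endogenously expressing miR-21, were treated with titrations (up to about 40uM final) for 48 hours at 37 degree Celsius. Luciferase luminescence was read after lysis.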
# The depositor's hits bear a star; ? = inconclusive; · = no result given. Some of the compounds tested. The share of hits here may be higher or lower than overall.
# Start of the listing, in advance:
no.	structure	GLA inh pH 4.5	Rango release inh
1	CN(CCOc1ccccc1)S(=O)(=O)c1ccccc1C#N	·	45.9%
2	Clc1ccc(-c2cc(COc3ccc4ccccc4c3)no2)cc1	-1.2	0.1%

no.	Rango complex inh	miR-21 reporter
1	0.9%	·
2	-3.5%	-2.2%

# Results (from the top)
no.	structure	GLA inh pH 4.5	Rango release inh
1	CN(CCOc1ccccc1)S(=O)(=O)c1ccccc1C#N	·	45.9%
2	Clc1ccc(-c2cc(COc3ccc4ccccc4c3)no2)cc1	-1.2	0.1%
3	O=C(c1ccc(O)c(Br)c1)c1cc(Br)ccc1O	·	-14.6%
4	CCCCOCCCNC(=O)Cc1ccccc1OC	4.8	-4.7%
5	CNC(=S)N/N=C/c1c(C)cccc1Cl	-23.4	21.6%
6	COc1ccc(S(=O)(=O)Nc2nc3ccccc3nc2Nc2cccc(C(=O)O)c2)cc1	·	-8.2%
7	CC1CCCCC1NC(=O)NC(=O)COC(=O)c1nccnc1N (centres undefined)	·	-9.1%
8	O=C(N/C(=C\c1cccnc1)c1nc2ccccc2[nH]1)c1cccc(Br)c1	0.0	-11.7%
9	CCn1c(CCNC(=O)c2ccc(OC)cc2)nnc1SCC(=O)Nc1ccccc1F	-5.8	11.3%
10	COc1cc(CC(=O)NCC2CCCCC2)cc(OC)c1OC	·	15.7%

no.	Rango complex inh	miR-21 reporter
1	0.9%	·
2	-3.5%	-2.2%
3	1.1%	·
4	-2.3%	-0.7%
5	-0.6%	-1.1%
6	-0.5%	-4.6%
7	-0.4%	·
8	-0.5%	-16.2%
9	5.6%	-12.5%
10	-1.1%	-2.9%

# (listing goes on)
no.	structure	GLA inh pH 4.5	Rango release inh
11	CC[C@]12c3[nH]c4ccc(Cl)cc4c3CCN1C(=O)[C@@H](CC(=O)NCCCN(C)C)C[C@@H]2C(=O)N1CCN(C(=O)C2CC2)CC1	·	44.0%
12	COc1ccc(N(CC(=O)NC2CC3CCC2C3)S(=O)(=O)c2ccccc2)cc1OC (centres undefined)	·	9.3%
13	COc1cc(-n2nnnc2SCC(=O)N2CCN(c3ccc(F)cc3)CC2)c(OC)cc1Cl	-10.4	2.6%
14	COc1cc(Cl)ccc1OCc1cc(C(=O)N(C)CCc2c(C)n[nH]c2C)no1	·	-16.1%
15	Cc1cc(C(=O)CN2C(=O)C(=O)N(C3CCCC3)C2=O)c(C)n1CCc1ccc(F)cc1	·	13.0%
16	COc1ccc(S(=O)(=O)CCC(=O)NCCc2cccc(C)c2)cc1	-0.7	-20.3%
17	COc1ccc(Cl)cc1NC(=O)CN(C)C(=O)c1sc2ccccc2c1Cl	·	1.9%
18	CCC(C)(C(=O)NC1CCCC1)N(C)C(=O)c1ccccn1 (centres undefined)	5.1	-3.3%
19	CNC(=O)CSc1nnc(-c2ccccc2)n1C	-10.8	-5.7%
20	Cc1ccc(NC(=S)NCc2cccn2C)cc1	3.1	9.8%

no.	Rango complex inh	miR-21 reporter
11	-0.6%	·
12	3.2%	-6.8%
13	3.5%	20.2%
14	-6.1%	-18.1%
15	-2.1%	·
16	0.3%	0.0%
17	3.0%	·
18	1.0%	-0.3%
19	-1.4%	-8.6%
20	0.8%	-1.7%

# The list goes on.
no.	structure	GLA inh pH 4.5	Rango release inh
21	CCOC(=O)C1(C)Oc2ccc(S(=O)(=O)CC)cc2NC1=O (centres undefined)	14.3	-13.4%
22	CC(O)(c1ccc(Cl)cc1)C(c1ccccc1)c1ccccn1 (centres undefined)	·	-0.4%
23	Cc1cc([N+](=O)[O-])nn1Cc1ccc(C(=O)N/N=C/c2ccccc2)cc1	-7.2	4.2%
24	Cc1cc(C(=O)N/N=C/c2ccc(O)c(O)c2O)c(C)n1-c1ccccc1	-1.9	-19.6%
25	CC(C)N1CCC(N2CCN(Cc3ccc(Oc4ncccn4)cc3)CC2CCO)CC1 (centres undefined)	0.8	-5.6%
26	Cc1ccc(-c2nc3cccnc3s2)cc1NC(=O)C1c2ccccc2Oc2ccccc21	3.2	5.3%
27	O=C(O)c1ccc([N+](=O)[O-])cc1	·	-16.3%
28	C/C(=N/NS(=O)(=O)c1ccccc1)c1c[nH]c2ccccc12	·	13.1%
29	CCCC(NS(=O)(=O)c1ccc(Br)cc1)C(=O)O (centres undefined)	17.7	0.6%
30	COc1ccc(NC2CCCN(C(=O)CCCn3cncn3)C2)cc1OC (centres undefined)	·	7.4%

no.	Rango complex inh	miR-21 reporter
21	-0.2%	-1.8%
22	0.5%	·
23	0.4%	-7.2%
24	2.5%	-21.4%
25	2.1%	4.9%
26	-0.5%	-48.1%
27	0.2%	·
28	0.6%	-4.6%
29	0.5%	-4.6%
30	-2.0%	-4.3%

# Four entries from above, screen by screen.
26) Cc1ccc(-c2nc3cccnc3s2)cc1NC(=O)C1c2ccccc2Oc2ccccc21
30) COc1ccc(NC2CCCN(C(=O)CCCn3cncn3)C2)cc1OC (centres undefined)
28) C/C(=N/NS(=O)(=O)c1ccccc1)c1c[nH]c2ccccc12
24) Cc1cc(C(=O)N/N=C/c2ccc(O)c(O)c2O)c(C)n1-c1ccccc1
Assay by compound	26	30	28	24
GLA inh pH 4.5	3.2	·	·	-1.9
Rango release inh	5.3%	7.4%	13.1%	-19.6%
Rango complex inh	-0.5%	-2.0%	0.6%	2.5%
miR-21 reporter	-48.1%	-4.3%	-4.6%	-21.4%

# (next part)
no.	structure	GLA inh pH 4.5	Rango release inh
31	ON=C1/C(=N\O)CC2(C/C1=N/O)OCCO2	3.9	0.8%
32	CCN(CC)C(c1ccc(F)cc1)c1nnnn1C1CCCCC1 (centres undefined)	-4.5	5.6%
33	COc1ccc(CN=C2Nc3ccccc3CS2)cc1	10.0	-13.7%
34	CCc1nccn1CCC(=O)NC1CC(C)(C)Cc2c1cnn2-c1ccc(C)cc1 (centres undefined)	·	-3.5%
35	CCN(CC)CCN1C(=O)c2ccccc2NC1c1ccc(C)cc1 (centres undefined)	4.9	-9.8%
36	CC(C)N(C=O)C1(C(=O)NC2CCCCC2)CCCCC1	-2.8	-2.1%
37	CN1Cc2c(N3CCOCC3)nc(SCCC#N)c(C#N)c2CC1(C)C	-0.2	?
38	Cc1ccc(C)c(NC(=O)c2cc3ccccc3o2)c1	·	-4.1%
39	CC(C)NC(=S)Nc1ccc2cn[nH]c2c1	12.6	29.9%
40	Cc1nc2ccc(NC(=O)/C=C/C(=O)O)cc2nc1C	-3.0	-23.0%

no.	Rango complex inh	miR-21 reporter
31	-3.2%	-0.3%
32	3.4%	-7.4%
33	1.4%	-42.1%
34	-6.5%	-1.7%
35	-6.1%	-4.9%
36	-0.7%	-1.1%
37	?	5.2%
38	3.9%	-54.1%
39	-2.3%	-0.3%
40	?	-4.1%

# Remaining list, next part:
no.	structure	GLA inh pH 4.5	Rango release inh
41	O=C(Nc1nc(=O)n(C(=O)c2cccc(C(F)(F)F)c2)s1)c1ccccc1	-0.7	-0.2%
42	O=S(=O)(NCc1ccccc1)c1cccc2cccnc12	-8.3	-6.5%
43	CCCCN(Cc1cc2cc(C)ccc2[nH]c1=O)C(=O)c1ccccn1	2.5	-5.6%
44	CCOC(=O)N1CCN(C(=O)c2cc3c(-c4cccc(OC)c4)nn(C)c3s2)CC1	·	-9.9%
45	COc1cc(-n2c(=O)c3ccccc3n(Cc3cccc(F)c3)c2=O)cc(OC)c1OC	3.1	-17.4%
46	CC(C)(C)c1ccc(C(=O)NC(=O)CSc2n[nH]c(N)n2)cc1	·	-6.1%
47	CCOc1cccc(CN2CCN(CCCc3ccccc3)C(CCO)C2)c1O (centres undefined)	·	8.5%
48	COC(=O)[C@H](Cc1ccccc1)NC(=O)Cn1cnc(C(=O)Nc2ccc(C)c(C)c2)n1	·	-5.1%
49	Cc1ccc(C)c(NC(=S)N(Cc2ccc(Cl)cc2)Cc2ccc(C(=O)O)cc2)c1	4.6	-6.9%
50	Cn1c(SCC(=O)Nc2ccccc2O)nnc1-c1ccco1	·	18.5%

no.	Rango complex inh	miR-21 reporter
41	2.7%	-6.0%
42	-1.3%	-0.2%
43	0.5%	3.9%
44	0.7%	11.6%
45	-0.4%	-0.6%
46	-0.3%	·
47	5.6%	1.4%
48	-3.4%	·
49	1.1%	7.4%
50	1.5%	-1.5%

# Compound profiles, as listed above. Values in the order: GLA inh pH 4.5 | Rango release inh | Rango complex inh | miR-21 reporter
# Entry for CCCCN(Cc1cc2cc(C)ccc2[nH]c1=O)C(=O)c1ccccn1 : 2.5 | -5.6% | 0.5% | 3.9%
# Entry for COC(=O)[C@H](Cc1ccccc1)NC(=O)Cn1cnc(C(=O)Nc2ccc(C)c(C)c2)n1 : · | -5.1% | -3.4% | ·
# Entry for CCOc1cccc(CN2CCN(CCCc3ccccc3)C(CCO)C2)c1O (centres undefined) : · | 8.5% | 5.6% | 1.4%
# Entry for Cc1ccc(C)c(NC(=S)N(Cc2ccc(Cl)cc2)Cc2ccc(C(=O)O)cc2)c1 : 4.6 | -6.9% | 1.1% | 7.4%
# Entry for O=C(Nc1nc(=O)n(C(=O)c2cccc(C(F)(F)F)c2)s1)c1ccccc1 : -0.7 | -0.2% | 2.7% | -6.0%

# Additional compounds:
no.	structure	GLA inh pH 4.5	Rango release inh
51	C[C@@H]1CN([C@@H](C)CO)C(=O)c2cc(NC(=O)CCC(F)(F)F)ccc2O[C@H]1CN(C)Cc1ccc(Cl)c(Cl)c1	·	9.9%
52	Cc1nc(NC(=O)c2cccs2)ccc1Br	-3.2	7.0%
53	O=[N+]([O-])c1cnn(-c2nc(-c3cccs3)cc(C(F)(F)F)n2)c1	9.8	-3.9%
54	Cc1ccc(N2CC(C(=O)NC3CCSC3=O)CC2=O)cc1 (centres undefined)	-0.2	-0.6%
55	C/C(CCc1ccco1)=N/NC(=O)CCC(=O)Nc1cccc(Cl)c1	-8.1	-7.9%
56	C=CCN1CC2(c3ccccc3)CN(CC=C)CC(c3ccccc3)(C1)C2=O	-5.7	15.2%
57	O=C(Nc1cc(Cl)ccc1Cl)Nn1cnnc1	·	-9.9%
58	CN1CCN(C(=O)CCNC(=O)Cn2cnc3ccccc3c2=O)CC1	·	-2.7%
59	C=CCn1c(C)cc(C(=O)CN2NS(=O)(=O)c3ccccc3C2=O)c1C	-13.3	1.0%
60	CCOc1ccccc1C(=O)NCC(=O)NCC1CCCCC1	·	13.8%

no.	Rango complex inh	miR-21 reporter
51	-1.3%	·
52	-2.9%	-24.1%
53	-0.2%	0.4%
54	0.0%	-0.6%
55	5.5%	-8.3%
56	0.0%	-1.4%
57	-0.8%	-0.5%
58	-1.0%	5.5%
59	-0.8%	-2.7%
60	7.1%	-5.2%

# (more compounds)
no.	structure	GLA inh pH 4.5	Rango release inh
61	CSc1ccccc1OCc1cc(C(=O)NCCCc2ccccc2)no1	·	18.1%
62	C=CCOC1COC2C(OCC=C)COC12 (centres undefined)	·	-1.6%
63	Cc1c(Cc2ccccc2)c(=O)oc2cc(OCc3ccc(C(=O)O)cc3)ccc12	3.9	6.9%
64	CCCN1C(=O)C(O)(CC(=O)c2ccc3c(c2)OCCO3)c2ccccc21 (centres undefined)	-0.5	-2.4%
65	Cc1ccc(/C=N/NC(=O)CNC(=O)c2ccc(S(=O)(=O)N(C)C)cc2)o1	-11.5	-10.9%
66	CC(=O)Nc1ccc(S(=O)(=O)N2CCc3cc4c(cc3C2)OCCCO4)cc1	·	-10.7%
67	Cc1nc(N)sc1N=Nc1ccccc1C(F)(F)F	·	10.0%
68	CC1=CC(=O)Nc2cncnc2N1	·	?
69	Cc1[nH]c2ccccc2c1C1=NNC(=Nc2ccc(F)cc2)SC1	0.8	-8.0%
70	COc1cccc(-c2nc(CS(=O)(=O)CC(=O)Nc3cccc(C)c3C)c(C)o2)c1	2.4	2.1%
71	CC(C)N(Cc1nc(-c2ccc(Cl)cc2)no1)C(=O)C12CC3CC(CC(C3)C1)C2	4.5	-5.0%
72	CCCCC(=O)N/N=C/c1ccc(Sc2cccc3cccnc23)o1	1.4	-2.4%

no.	Rango complex inh	miR-21 reporter
61	-2.3%	1.6%
62	-0.5%	·
63	1.1%	-6.8%
64	-3.7%	-3.9%
65	2.7%	1.9%
66	-0.7%	2.0%
67	0.3%	-90.1%
68	?	·
69	-1.0%	?
70	-2.9%	-2.8%
71	-1.5%	-0.2%
72	2.5%	-5.8%

# Screens (PubChem BioAssay)
